Screening results as filed in PubChem.
hNpr1 antagonist – human Npr1 receptor antagonism. Potency, µM (doses to about 46.3 µM), for inactives: at the top dose activity change, negative = inhibition, hits mostly inhibitors. HEK293 hNpr1 GloSensor cGMP, ANP-stimulated luminescence. P16066. 1.6% of 76,000 active; active = well fitted inhibition curve with a large enough effect; inconclusive = small, poorly fitted or top-dose-only effect; inactive = no such curve, though single readings can be large or run the other way;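 also: nearly all actives have a fitted effect of over 60% in size; nearly all hits also lower the signal before the agonist is added; a reference antagonist and vehicle were the controls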
Target sequence (P16066 whole entry, looked up): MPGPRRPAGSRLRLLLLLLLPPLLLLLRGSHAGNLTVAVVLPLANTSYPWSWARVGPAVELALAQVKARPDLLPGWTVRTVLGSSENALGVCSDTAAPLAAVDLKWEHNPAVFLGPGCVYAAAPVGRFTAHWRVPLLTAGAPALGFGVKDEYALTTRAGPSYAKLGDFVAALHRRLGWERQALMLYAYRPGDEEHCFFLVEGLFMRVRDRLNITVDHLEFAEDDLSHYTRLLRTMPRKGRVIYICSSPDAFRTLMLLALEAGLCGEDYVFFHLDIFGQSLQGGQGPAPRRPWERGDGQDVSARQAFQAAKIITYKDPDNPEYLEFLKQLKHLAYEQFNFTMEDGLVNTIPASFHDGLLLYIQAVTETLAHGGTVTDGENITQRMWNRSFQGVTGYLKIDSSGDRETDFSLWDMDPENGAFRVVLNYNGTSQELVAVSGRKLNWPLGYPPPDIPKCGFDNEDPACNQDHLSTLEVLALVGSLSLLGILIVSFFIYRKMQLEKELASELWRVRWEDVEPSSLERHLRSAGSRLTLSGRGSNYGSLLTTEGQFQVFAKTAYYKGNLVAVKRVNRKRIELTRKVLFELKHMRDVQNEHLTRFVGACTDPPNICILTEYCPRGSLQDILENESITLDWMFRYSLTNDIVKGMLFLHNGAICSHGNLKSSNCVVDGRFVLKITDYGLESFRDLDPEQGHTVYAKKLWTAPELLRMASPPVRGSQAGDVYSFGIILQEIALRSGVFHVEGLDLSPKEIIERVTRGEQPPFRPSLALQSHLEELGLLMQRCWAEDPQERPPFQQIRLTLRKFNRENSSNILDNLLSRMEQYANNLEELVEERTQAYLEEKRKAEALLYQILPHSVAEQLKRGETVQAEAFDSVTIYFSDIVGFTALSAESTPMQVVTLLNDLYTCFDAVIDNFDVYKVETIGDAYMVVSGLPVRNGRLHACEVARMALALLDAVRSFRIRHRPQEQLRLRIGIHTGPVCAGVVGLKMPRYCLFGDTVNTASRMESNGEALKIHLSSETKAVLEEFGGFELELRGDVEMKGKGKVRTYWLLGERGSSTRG
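Compound pre-incubated 30 min at room temperature on GloSensor-loaded HEK293 cells stably carrying hNpr1 and the pGS-40F cGMP biosensor. Stimulation uses hNppA at 0.1 nM final; luminescence is taken at baseline and 20 min post-agonist.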
Starred values were filed as active, the others as inactive; u = inconclusive; [ ] = another dose, or the depositor's remark. % is scaled to controls: 0 for no effect and ±100 for the full control effect; potency is read from the fitted curve at half-maximal effect.

SMILES | hNpr1 antagonist
Cc1nc(C(=O)N2C[C@@H](COc3ccccc3)[C@H](C(N)=O)C2)co1 | 0.0%
COc1ccc(OC)c(NC(=O)N2CCCC(Cn3cnc4cccnc43)C2)c1 (configuration not stated) | -2.5%
CNCC(=O)N1CCC(n2nccc2NC(=O)Nc2ccccc2C)CC1 | 2.8%
COCCN1Cc2[nH]nc(-c3ccsc3)c2CC1=O | -0.3%[70.6 µM]
COc1cc(F)ccc1-c1cc(C(=O)NCc2ccnc(N)c2)c2c(c1)ncn2C | -13.2%[70.6 µM]
COCCOC1CCOC2(CCN(C(=O)c3cccs3)CC2)C1 (configuration not stated) | 7.4%
CCOc1ccccc1CN1CCNC(=O)C1CC(=O)N1CCCOCC1 (configuration not stated) | 7.1%
O=C(COc1ccc(F)cc1)N1CCCC(c2nc(C3CCOCC3)no2)C1 (configuration not stated) | 4.7%
O=S(=O)(NCC1CCOCC1)c1ccc(F)cc1F | 1.7%
CC(=O)c1sccc1-c1cc(NCc2ccccn2)nc2[nH]ccc12 | -15.3%

Reformatted field by field: 4 of the compounds above
Molecule: CNCC(=O)N1CCC(n2nccc2NC(=O)Nc2ccccc2C)CC1
  hNpr1 antagonist: 2.8%
Molecule: COCCN1Cc2[nH]nc(-c3ccsc3)c2CC1=O
  hNpr1 antagonist: -0.3%[70.6 µM]
Molecule: COc1cc(F)ccc1-c1cc(C(=O)NCc2ccnc(N)c2)c2c(c1)ncn2C
  hNpr1 antagonist: -13.2%[70.6 µM]
Molecule: O=S(=O)(NCC1CCOCC1)c1ccc(F)cc1F
  hNpr1 antagonist: 1.7%

Rewritten with each value named: three of the compounds above
COc1cc(F)ccc1-c1cc(C(=O)NCc2ccnc(N)c2)c2c(c1)ncn2C
  hNpr1 antagonist: -13.2%[70.6 µM]

COCCOC1CCOC2(CCN(C(=O)c3cccs3)CC2)C1 (configuration not stated)
  hNpr1 antagonist: 7.4%

CCOc1ccccc1CN1CCNC(=O)C1CC(=O)N1CCCOCC1 (configuration not stated)
  hNpr1 antagonist: 7.1%

Going on with the list:
SMILES | hNpr1 antagonist
COc1ccc(-c2cc(N3CCC(NC(=O)c4ccncc4)C3)n[nH]2)cc1 (configuration not stated) | 1.7%
CC(C)c1noc(-c2cn(C3CCN(C(=O)c4cccc(C#N)c4)CC3)nn2)n1 | 0.0%
CC(=O)Nc1ccc(NC(=O)Cn2ccn3nc4c(c3c2=O)CCCCC4)cc1 | 2.9%
Fc1ccc(-c2nnc3ccc(Nc4ccc(N5CCOCC5)cc4)nn23)nc1 | -0.8%[70.6 µM]
COc1ccc(-c2cc(N3CCCC(NC(=O)c4cccc(Br)c4)C3)n[nH]2)cc1 (configuration not stated) | -29.4%
O=C(c1ccccc1)N1CCN2C(=O)N(Cc3ccccn3)C[C@H]2C1 | -6.7%[70.6 µM]
CCCNC(=O)C1COC2(CCN(C(=O)Cc3ccccc3)CC2)N1C(=O)c1cccc(C)c1 (configuration not stated) | -7.0%
CN(CCc1noc(C2CN(Cc3cc(Cl)ccc3F)C2)n1)S(C)(=O)=O | 2.2%
O=S(=O)(NCC1(COc2ccc(C(F)(F)F)cn2)C[C@@H](O)[C@@H](O)C1)c1ccc(Cl)cc1 (some centres not stated) | 4.8%
O=C(NCc1ccccc1F)c1noc(-c2ccc3c(c2)OCO3)n1 | -5.0%
CCS(=O)(=O)Nc1ccc(C2(C(=O)NCc3ccccc3)CCCCC2)cc1 | -2.0%
O=C(N[C@@H]1CN(Cc2ccoc2)C[C@H]1CO)c1cccnc1 | -9.6%
CC(C)(C)OC(=O)N1CCCCC1Cn1c(=O)[nH]c2cccnc21 (configuration not stated) | 34.0%[activator][70.6 µM]
C[C@@H]1C(=O)O[C@H]2[C@H]1CC[C@@]1(C)Cc3sc(NC(=O)Nc4ccc(Oc5ccccc5)cc4)nc3[C@@H](C)[C@H]21 | 4.8%
O=C1NCCCCCCN(C(=O)C2CCCC2)[C@H]2CCCC[C@@H]12 | -13.2%
O=C1CC(c2ccccc2)N(C(=O)CNC(=O)c2ccco2)CCCCCCN1 (configuration not stated) | 5.0%
Cc1noc(C)c1S(=O)(=O)N1CCCCCCNC(=O)CC1 | 7.4%
O=C(Cn1nc2c(cc1=O)CCCCC2)NC1CCCc2c1[nH]c1c(Cl)cccc21 (configuration not stated) | -8.9%
O=C(NCCN1CCOC1=O)c1cn(CCC2CCCCN2)nn1 (configuration not stated) | 3.3%
COCc1nc2nccc(-c3cccs3)n2n1 | 6.9%
COc1cccc(CN2C(=O)CCCCC2C(=O)NCc2cn[nH]c2C)c1 (configuration not stated) | 6.3%
CCNC(=O)[C@@H]1C[C@H](NC(=O)c2cncnc2C)CN1CCCSC | -0.1%
Nc1ccsc1C(=O)N[C@H](Cc1ccncc1)C1CC(O)C1 (some centres not stated) | 2.3%
O=[S+]([O-])(Nc1cccnc1)c1ccc2c(c1)OCCN(Cc1cscn1)C2 | 2.4%[70.6 µM]
Cc1noc(C)c1S(=O)(=O)N1CCCC(c2nc(C(C)C)no2)CCNC(=O)CC1 (configuration not stated) | 0.1%
COc1ccc(C(=O)NC[C@@H]2CC[C@H]3C[C@@H]2C3(C)C)cc1 | u
CCc1noc(-c2cn(C3CCN(C(=O)c4cccs4)CC3)nn2)n1 | 18.4%
N#Cc1ccc(C(=O)N2CCCC(CO)CCNC(=O)CC2)cc1 (configuration not stated) | 6.6%
Cc1ccc(C(=O)N2CCCC(c3noc(COc4ccccc4)n3)C2)s1 (configuration not stated) | -13.5%
COC(=O)c1cccc(NC(=S)N[C@@H]2C=C[C@@H](c3c(C)nn(-c4ccc(F)cc4)c3C)C2)c1 | u
CN1CC(=O)N(c2ccc(Cl)cc2)Cc2c1ncnc2N1CCCCC1 | -6.8%
COc1ccc(CNC(=O)CN2C(=O)C(c3ccccc3)=NC2(C)C)cc1OC | 3.5%
Cc1c(Cl)c(C(=O)N2CCn3nc(Cc4ccccc4)cc3C2)nn1C | 0.8%
CCc1noc(-c2cccn3c(CNC(=O)c4ccncc4)nnc23)n1 | 0.1%
CNC(=O)NCCc1ncc(C)n1C1CCCCCC1 | 3.6%
CNC(=O)[C@H]1C[C@H](Oc2cccnc2)CN1C(=O)Nc1ccc2c(c1)OCCO2 | -3.8%
Cc1cc(F)ccc1NC(=O)Cn1c(C)cc2nc3n(c(=O)c21)CCCCC3 | -0.3%
COCCc1noc([C@@H]2CN(CC(C)(C)C)C[C@H]2CO)n1 | -10.5%
Cc1ccc(CN2CCC[C@H]2C(=O)N2CCCCCCNC(=O)CC2)s1 | -10.9%
Cc1cc(C(=O)N2CCC3(CC2)CC(O)CCO3)c(C)o1 (configuration not stated) | 2.7%
COc1ccc(C(=O)N2CCC3(CC2)c2[nH]c4ccccc4c2CCN3C)c(OC)n1 | -2.9%
COCCN1CCC(N2CCN(C(=O)C3CCCC3)CC2)C1=O (configuration not stated) | 1.9%
COc1ccc(C(=O)N2CCOCCNC(=O)CC2)cc1F | -1.0%
CCCn1cc(C(=O)NC(C)c2cnn(-c3cccc(F)c3)c2C)c(C)n1 (configuration not stated) | 2.82µM*
O=C1CCN(C2CCCC2)CCCC(c2nc(-c3cccnc3)no2)CCN1 (configuration not stated) | 2.0%
Fc1ccccc1CN1CCCC2(CCN(c3cnccn3)C2)C1 (configuration not stated) | -0.6%
Cc1ccc(NC(=O)Cn2nc3n(c2=O)CCCC3)cc1 | -2.4%
Cc1cccc(C2c3cc(OCc4nc(C(=O)NCC5CC5)co4)ccc3CCN2C(=O)C2CC2)c1 (configuration not stated) | u
Cc1cn2nc(-c3nc(C4CCCN(C(=O)c5ccc(Cl)cc5)C4)no3)cc2c(=O)[nH]1 (configuration not stated) | -10.0%
O=C(c1cccnc1)N1CCC2(CC1)CN(Cc1ccccc1)CC2CO (configuration not stated) | -20.0%
(further entries)
SMILES | hNpr1 antagonist
COc1cccc(CN2CCCN(S(=O)(=O)c3ccccc3)CCC(=O)NCC2)c1OC | -9.5%
Cc1cccc2c1nc1n2[C@@H](CNC2CCCCC2)COC1 | 4.7%[70.6 µM]
COCCN1C(=O)Cc2ccccc2C1C(=O)NCc1ccccc1 (configuration not stated) | -2.0%
Cc1noc(-c2cn(C3CCN(C(=O)c4ccc(C)c(F)c4)CC3)nn2)n1 | -7.8%
CC1(CNC(=O)NC2CCCC2)CCOCC1 | 0.4%
NC(=O)C1CCN(c2cc(-c3noc([C@@H]4CCCN4Cc4ccncc4)n3)ccn2)CC1 | -2.9%[70.6 µM]
CC(=O)N[C@H]1CC[C@]2(C)CCC([C@H](C)C(=O)N3CCC(C)CC3)[C@H](O)[C@H]2[C@@H]1C (some centres not stated) | 8.8%[70.6 µM]
CCn1ncc(N2CCC(NC(=O)CCC(C)C)CC2)cc1=O | 0.2%
Cc1cc(C(=O)N2CC(F)(F)C[C@H]2c2nc(C3CC3)no2)on1 | 2.7%
COC(=O)N(C)Cc1ccc(-c2ccccc2)cc1 | -5.4%[70.6 µM]
COc1ccc(-c2noc(CC3CCN(C(=O)c4cc(F)ccc4Cl)CC3)n2)cc1 | 10µM*
COc1ccc(F)c(-c2nc(CN3CCN(S(N)(=O)=O)CC3)c(C)o2)c1 | -5.3%
O=C(N[C@H]1CO[C@H]2[C@@H]1OC[C@@H]2n1nnnc1Oc1ccccc1)c1cncnc1 | 5.2%[70.6 µM]
CCNC(=O)[C@@H]1C[C@H](n2cc(C(C)(C)NC(=O)c3ccccc3C)nn2)CN1 | -5.3%
O=C(NCc1ccc(F)cc1)c1noc(-c2ccc(F)cc2)n1 | -0.4%
COc1ccc(CNC(=O)c2ccc3c(c2)N(C(=O)c2ccc(F)cc2)CC3)cc1 | -15.1%
CCCCCC(=O)N[C@H]1C[C@@H](Cc2cc(CN3CCOCC3)on2)C1(C)C | -1.3%[70.6 µM]
Cc1ccc(NC(=O)N2CCc3c(C(=O)NCc4ccco4)cccc32)cc1 | 1.12µM*
CCCS(=O)(=O)N1C[C@@H](Oc2cccnc2)C[C@@H]1C(=O)NC | 4.9%
CNC(=O)c1cccc(-c2cnc3[nH]cc(CC(=O)NCc4cccs4)c3c2)c1 | -14.2%[70.6 µM]
CNC(=O)[C@@H]1C[C@H](n2cc(CNC(=O)CCC3CCCCC3)nn2)CN1 | 1.4%
CN(C)c1ccc(C(=O)NC[C@H]2O[C@@H](CO)[C@@H](O)[C@H]2N2CCN(c3ccccn3)CC2)cc1 | -14.2%
Cc1ccc(-n2cccc2CC(=O)NC(C)(C)C)cc1 | -0.2%
CC(=O)c1cc(CC(=O)N[C@@H]2COCC[C@@H]2OCc2ccccc2)cs1 | 0.3%
CC(C)=CCn1c(-c2ccc(F)cc2)cn2cc(C(=O)N3CC[C@H](O)C3)nc2c1=O | 6.0%
Cn1nc(C2CCCN(C(=O)Nc3ccc4c(c3)OCCO4)C2)n(C2CCCC2)c1=O (configuration not stated) | -1.8%
COC[C@H]1C[C@@H](NC(=O)c2ccc(C(F)(F)F)cc2)[C@H](O)[C@@H]1O | 0.4%[70.6 µM]
O=C1N(Cc2ccccc2)c2ccccc2C12CCN([S+](=O)([O-])c1ccccc1)C2 (configuration not stated) | -14.9%
CNC(=O)[C@@H]1CNC[C@H]1C1CCN(C)CC1 | -1.1%
COCCNC(=O)c1coc(COc2ccc3c(c2)C(c2ccc(C)cc2)N(C(=O)C2CC2)CC3)n1 (configuration not stated) | 2.0%
OC(c1cccc(C(F)(F)F)c1)c1nc(Nc2ccc(F)cc2)n[nH]1 (configuration not stated) | -26.0%[70.6 µM]
Cc1cc2cc(-c3c(C)noc3C)nc(Nc3cccc(F)c3)c2o1 | -8.4%[70.6 µM]
COc1cccc2c1OCC(C(=O)N1CCC(NS(C)(=O)=O)CC1)C2 (configuration not stated) | 3.0%
COc1ccc(-c2cc(C(=O)NCc3cccnc3)c3c(c2)N(C)CCO3)cc1OC | 1.7%[70.6 µM]
CC[C@H]1CN(S(=O)(=O)c2ccc(OC)cc2)CC[C@H]1CC(=O)NCCOC | 6.2%[70.6 µM]
CN1[C@@H](CCC(=O)N2CCN(c3ccccc3)CC2)CNC(=O)[C@@H]2[C@H]1CCN2Cc1csnn1 | 7.6%
COc1ccc(C(=O)Nc2ccc3c(c2)CN(CCc2ccccc2)C(=O)C(C)O3)cc1OC (configuration not stated) | -6.5%
CCC(CC)N(CC)C(=O)CC1COc2ccc(C(=O)N(C)C)cc2N1C (configuration not stated) | -8.2%
O=C(C1CCC(=O)N(C2CCCC2)C1)N1CC(OCc2ccccc2F)C1 (configuration not stated) | -0.9%
O=C1NCCCCCN(C(=O)C2CC=CC2)[C@H]2CCC[C@@H]12 | 3.0%
CN1C(=O)CC(C(=O)O)C12CCN(Cc1cccc(-c3ccccc3)c1)CC2 (configuration not stated) | -2.5%
N#Cc1ccc(C(=O)Nc2ccc([C@H]3OCC(=O)N(C4CCOCC4)[C@@H]3CO)cc2)cc1 | 0.0%
COc1ccccc1N1CCN([C@H]2[C@@H]3OC[C@@H](O3)[C@@H](NCc3ccc4c(c3)OCO4)[C@@H]2O)CC1 | 6.8%
COc1ccc(Cl)cc1C(=O)NC1CCN(C(=O)c2cc3c(=O)[nH]c(C)cn3n2)CC1 | -0.5%
O=C(NC[C@H]1OC[C@@H](NC2CCC(F)(F)CC2)[C@@H]1O)c1ccccc1 | 5.9%[70.6 µM]
O=C(c1cccc2nccnc12)N1CCC(Cc2nc(-c3ccccc3)n[nH]2)CC1 | 3.0%
CCCS(=O)(=O)N1CCCC(Cn2c(C)nc3cccnc32)C1 (configuration not stated) | -7.7%
c1ccc(-c2noc(-c3cncnc3NC3CCCCCC3)n2)cc1 | 3.0%
O=C(NCc1ccc(C(F)(F)F)cc1)c1nc2sccn2c1Br | -10.3%
COc1ccc(C2Cn3nnc(-c4nc(-c5ccccc5F)no4)c3CO2)cc1 (configuration not stated) | u

These rows are one share of the data; rates above refer to the full screens.
